rRNA inh HTS: inhibits bacterial ribosomal RNA function over humanized ribosomes; GFP signal change (wild-type ribosome), % (concentration not given with the values); E. coli WT GFP vs humanized-ribosome RFP mutants, fluorescence, 24 h; stronger effect = lower value; DMSO median 0, no signal -100; AID 720706; actives 1.6% (n = 350,000);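 active = significant combined selectivity score with lowered wild-type GFP, culture density cut under 30%, mutant RFP and density less affected; inactive = any of these conditions unmet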; also: one replicate is shown; some compounds called inactive have numbers as strong as hits
rRNA inh HTS OD600: further read-out of rRNA inh HTS, marked with its call; OD600 change, %; measured here: OD600 growth;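 optical density of the mix in the first replicate; 0 = DMSO median and -100 = no signal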
rRNA inh HTS RFP: second read-out of rRNA inh HTS, no call of its own (marks repeat the call); RFP signal change, %; measured here: RFP humanized mutant strains;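 first replicate; 0 = DMSO median and -100 = no signal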
* = called active by the depositor; & = joins results of further samples.

Values run as follows: rRNA inh HTS OD600	rRNA inh HTS RFP	rRNA inh HTS
> C[C@H](CO)N1C[C@H](C)[C@H](CN(C)Cc2cccnc2)Oc2cc(C#C[C@@H](C)O)ccc2S1(=O)=O
    11	-2.3	-2
> C[C@@H]1CN([C@@H](C)CO)C(=O)c2cc(NC(=O)CCC(F)(F)F)ccc2O[C@@H](C)CCCCO[C@@H]1CN(C)Cc1ccc2c(c1)OCO2
    -3	-3.6	-3
> O=C(C[C@H]1CC[C@H](NC(=O)Cc2ccccn2)[C@@H](CO)O1)NCCc1ccccc1
    3	1.4	3
> Cc1noc(C)c1C(=O)N1CCC1(C)C(=O)NS(=O)(=O)c1ccccc1Cl (stereo unspecified)
    9	0.0	7
> C[C@H](CO)N1C[C@H](C)[C@@H](CN(C)C(=O)c2cccnc2)Oc2ncc(Br)cc2C1=O
    9&11	0.6&-4.5	4&11
> COc1ccc(-c2cnc3c(c2)C(=O)N([C@H](C)CO)C[C@H](C)[C@H](CN(C)Cc2cccc(C(F)(F)F)c2)O3)cc1
    -17	6.7	-6
> CC(=O)Nc1ccc2c(c1)C(=O)N(C)C[C@H](C)[C@@H](CN(C)C(=O)NC(C)C)O2
    1	-0.3	0
> O=C(/C=C/c1ccccc1[N+](=O)[O-])OCC(=O)N1CCN(c2ccccc2)CC1
    -6	16	-15
> CC(C)NC(=O)Nc1ccc2c(c1)C(=O)N([C@H](C)CO)C[C@H](C)[C@@H](CN(C)S(=O)(=O)c1ccc(Cl)cc1)OCCCC[C@H](C)O2
    -7	1.4	-4
> C[C@H](CO)N1C[C@H](C)[C@H](CN(C)S(=O)(=O)c2cn(C)cn2)OCCCC[C@H](C)Oc2ccc(NC(=O)c3ccncc3)cc2C1=O
    0	-2.7	1
> COc1ccc(NC(=O)N(C)C[C@@H]2OCCCC[C@H](C)Oc3ccc(NC(=O)c4ccncc4)cc3C(=O)N([C@@H](C)CO)C[C@H]2C)cc1
    2	1.8	1
> C[C@H]1CN(C)C(=O)c2cccc(N(C)C)c2O[C@@H]1CN(C)S(C)(=O)=O
    0	1.1	0
> CCCOc1ccc(F)cc1-c1cc(C(=O)NCc2cccs2)[nH]n1
    -21	4.5	-11
> CO[C@H]1CN(C)C(=O)c2cc(C#N)ccc2OC[C@@H]2O[C@H](CC[C@H]2OC)CCN(C)C(=O)[C@H]1C
    -3	-4.8	2
> NC(c1csc(Nc2ccc(C(=O)NCCO)cc2)n1)C1CCCCC1 (stereo unspecified)
    5	1.6	-6
> COc1ccc2c3c([nH]c2c1)[C@@H](CO)N(C(=O)c1ccc(F)cc1)CC31CCN(Cc2cccnc2)CC1
    4	-2.3	6
> COCC(=O)N1[C@H](CO)[C@H]2c3ccccc3N(C(=O)C3CC3)C[C@H]21
    5	-0.8	1
> C[C@@H]1CN([C@@H](C)CO)C(=O)c2cc(NC(=O)Nc3cccc4ccccc34)ccc2O[C@@H](C)CCCCO[C@@H]1CN(C)Cc1ccc2c(c1)OCO2
    -1	0.3	-4
> CNC[C@@H]1OCCCC[C@H](C)Oc2ccc(NC(=O)Nc3ccc(F)cc3)cc2C(=O)N([C@H](C)CO)C[C@@H]1C
    1	-1.3	6
> CN(C)CC(=O)N1CC(=O)N2[C@H](CO)[C@@H](c3ccc(/C=C/c4ccccc4)cc3)[C@H]2C1
    8	-2.2	6
> COc1ccc(CN(C)C[C@H]2OCCCC[C@@H](C)Oc3ccc(NC(=O)NC4CCCCC4)cc3C(=O)N([C@@H](C)CO)C[C@H]2C)cc1
    4	1.1	1
> O=C(C[C@H]1C=C[C@@H](NS(=O)(=O)c2ccccc2F)[C@@H](CO)O1)NCCCN1CCOCC1
    2	-1.4	-4
> CC(=O)Nc1ccc(-c2ccnc3c2CC(C)(C(=O)Nc2cccc(C(F)(F)F)c2)O3)cc1 (stereo unspecified)
    -55	3.8	-43
> O=C(N[C@@H]1CC[C@H](CCNC(=O)c2cnccn2)O[C@@H]1CO)c1ccc2c(c1)OCO2
    0	0.1	0
> O=C(C[C@H]1C=C[C@H](NC(=O)c2cccnc2)[C@@H](CO)O1)NCCN1CCCCC1
    7	-2.2	4
> C[C@H]1CCCCO[C@@H](CN(C)Cc2ccccc2)[C@@H](C)CN([C@@H](C)CO)C(=O)c2cc(NC(=O)Nc3ccc(C(F)(F)F)cc3)ccc2O1
    -6	7.5	-1
> Cc1noc(C)c1S(=O)(=O)Nc1ccc2c(c1)C(=O)N([C@@H](C)CO)C[C@@H](C)[C@H](CN(C)C)O2
    -3	3.0	7
> CO[C@@H]1CN(C)C(=O)c2cc(NC(=O)c3ccc4c(c3)OCO4)ccc2OC[C@@H](C)N(CC2CC2)C[C@H]1C
    0	1.8	-3
> CC(C)COC(=O)N1CCCCC1c1cc(C(=O)N2CCOCC2)no1 (stereo unspecified)
    11	1.0	5
> CNC[C@@H]1Oc2ccc(NC(=O)NC3CCCCC3)cc2C(=O)N([C@H](C)CO)C[C@@H]1C
    10	-0.8	5
> C[C@@H]1ON(C)[C@H]2C[C@H]3c4[nH]c5cccc(-c6ccc7c(c6)OCO7)c5c4CCN3C(=O)[C@@H]12
    -72	-12	-40
> CCOC1=C2[C@@H](CN(S(=O)(=O)c3ccc(C)cc3)[C@H]2c2cccc3ccccc23)[C@H]2C(=O)N(C3CCCCC3)C(=O)[C@H]2C1
    14	8.6	6
> CC(C)C(=O)Nc1ccc(C=C2C=Cc3ccccc32)cc1
    -1	-0.9	-7
> CN1C(=O)c2cc(NC(=O)C3CC3)ccc2OC[C@H]2O[C@H](CC(=O)NCCc3ccncc3)CC[C@H]21
    7	-1.3	5
> COc1cc(Cl)ccc1OCc1cc(C(=O)N2CCN(C)C(=O)[C@@H]2C)no1
    9	-3.9	-4
> CCCC#Cc1ccc([C@@H]2[C@@H](CO)N3C(=O)CN(S(=O)(=O)Cc4ccccc4)C[C@H]23)cc1
    -61	-0.7	-31
> CN1C(=O)c2cc(NC(=O)C3CC3)ccc2OC[C@@H]2O[C@H](CC(=O)O)CC[C@@H]21
    8	-0.6	4
> C[C@@H]1CN([C@H](C)CO)C(=O)c2cccc(NC(=O)c3ccncc3)c2O[C@H]1CN(C)Cc1ccc(Oc2ccccc2)cc1
    -41	6.9	-18
> C[C@@H]1CN([C@@H](C)CO)C(=O)c2cccc(N(C)C)c2O[C@H]1CN(C)Cc1ccc2c(c1)OCO2
    1	0.9	0
> CO[C@@H]1CC[C@@H]2CCOc3ccc(C#N)cc3C(=O)N(C)C[C@@H](C)C(=O)N(C)C[C@H]1O2
    -8	-1.0	2
> O=C(N[C@@H]1C=C[C@H](CC(=O)N2CCOCC2)O[C@@H]1CO)c1ccc2c(c1)OCO2
    0	-3.4	2
> C[C@H](CO)N1C[C@H](C)[C@H](CN(C)Cc2ccncc2)Oc2ccc(NC(=O)Nc3ccc(C(F)(F)F)cc3)cc2C1=O
    -20	5.9	-2
> CC(C)(C(=O)N1CCC1(C)C(=O)NS(=O)(=O)c1ccc(Br)cc1)c1ccccc1 (stereo unspecified)
    2	5.3	11
> CNC[C@H]1Oc2ccc(NC(=O)Nc3ccccc3)cc2C(=O)N([C@@H](C)CO)C[C@@H]1C
    2	1.8	5
> O=C(O)C[C@@H]1CC[C@@H](NC(=O)c2ccccc2F)[C@@H](CO)O1
    4	-0.3	2

Next part (seven carried over from the part before).
Values run as follows: rRNA inh HTS OD600	rRNA inh HTS RFP	rRNA inh HTS
> C[C@@H]1CN([C@@H](C)CO)C(=O)c2cccc(N(C)C)c2O[C@H]1CN(C)Cc1ccc2c(c1)OCO2
    1	0.9	0
> CO[C@@H]1CC[C@@H]2CCOc3ccc(C#N)cc3C(=O)N(C)C[C@@H](C)C(=O)N(C)C[C@H]1O2
    -8	-1.0	2
> O=C(N[C@@H]1C=C[C@H](CC(=O)N2CCOCC2)O[C@@H]1CO)c1ccc2c(c1)OCO2
    0	-3.4	2
> C[C@H](CO)N1C[C@H](C)[C@H](CN(C)Cc2ccncc2)Oc2ccc(NC(=O)Nc3ccc(C(F)(F)F)cc3)cc2C1=O
    -20	5.9	-2
> CC(C)(C(=O)N1CCC1(C)C(=O)NS(=O)(=O)c1ccc(Br)cc1)c1ccccc1 (stereo unspecified)
    2	5.3	11
> CNC[C@H]1Oc2ccc(NC(=O)Nc3ccccc3)cc2C(=O)N([C@@H](C)CO)C[C@@H]1C
    2	1.8	5
> O=C(O)C[C@@H]1CC[C@@H](NC(=O)c2ccccc2F)[C@@H](CO)O1
    4	-0.3	2
> C[C@@H]1CCCCO[C@@H](CN(C)C(=O)Nc2ccc3c(c2)OCO3)[C@@H](C)CN([C@@H](C)CO)C(=O)c2cc(NC(=O)Nc3ccc(C(F)(F)F)cc3)ccc2O1
    6	0.6	1
> O=C(Nc1ccccc1)N1CCCCN2[C@H](CO)[C@@H](c3ccc(-c4ccccc4)cc3)[C@@H]2C1
    -70	-1.2	-51
> CN(C)CCCNc1nc2cc(-c3ccc(C(=O)N4CCN(C)CC4)cc3)sc2c(=O)n1C
    13	-2.5	4
> C[C@@H]1CN([C@H](C)CO)C(=O)c2cc(NC(=O)Cn3cnnn3)ccc2O[C@H]1CN(C)Cc1ccc2c(c1)OCO2
    -10	1.2	1
> C[C@@H]1CN([C@@H](C)CO)C(=O)Cc2cc(NC(=O)c3ccncc3)ccc2O[C@@H]1CN(C)Cc1ccc(-c2ccccc2)cc1
    -37	26	-15
> Cc1noc(C)c1S(=O)(=O)Nc1ccc2c(c1)CC(=O)N([C@H](C)CO)C[C@H](C)[C@H](CN(C)S(C)(=O)=O)O2
    5	-1.5	0
> C[C@H](CO)N1C[C@H](C)[C@H](CN(C)S(=O)(=O)c2ccc(Cl)cc2)Oc2ccc(NC(=O)Nc3ccc4c(c3)OCO4)cc2C1=O
    -14	-1.0	2
> COc1cc(CN2C[C@@H](CO)O[C@@H](n3cnc4c(N5CCN(c6ccccc6)CC5)ncnc43)C2)cc(OC)c1OC
    -10	7.0	13
> Cc1cn([C@H]2C[C@H](O)[C@@H](CNC(=O)[C@H](N)Cc3cn(COCc4ccccc4)cn3)O2)c(=O)[nH]c1=O
    18	2.8	26
> CCC(=O)Nc1ccc2c(c1)C(=O)N(C)C[C@H](OC)[C@@H](C)CN(Cc1cccnc1)[C@H](C)CO2
    2	-1.5	2
> CCCS(=O)(=O)NC(=O)C1(C)CCCN(C(=O)c2ccccc2Br)C1 (stereo unspecified)
    1	-1.5	4
> O=C(Nc1cc(F)ccc1F)N1CCCCN2[C@H](C1)[C@H](c1ccc(C3=CCCCC3)cc1)[C@@H]2CO
    -26	-2.4	-4
> O=C(CCN1CCCCC1)NCC[C@@H]1CC[C@@H](NS(=O)(=O)c2cccc(Cl)c2)[C@H](CO)O1
    11	-1.2	4
> O=C(NC1Cc2ccccc2C1)[C@@H]1[C@@H](CO)[C@@H]2Cn3c(ccc(C4=CCCCC4)c3=O)[C@@H]2N1CC1CC1
    -44	20	-9
> CO[C@@H]1CC[C@@H]2CCOc3c(C#N)cccc3C(=O)N(C)C[C@H](C)C(=O)N(C)C[C@H]1O2
    30	-0.7	7

Record cards, from the list above. Values in the order: rRNA inh HTS OD600 | rRNA inh HTS RFP | rRNA inh HTS
`CCCS(=O)(=O)NC(=O)C1(C)CCCN(C(=O)c2ccccc2Br)C1` (stereo unspecified) across the screens: 1 | -1.5 | 4
`O=C(NC1Cc2ccccc2C1)[C@@H]1[C@@H](CO)[C@@H]2Cn3c(ccc(C4=CCCCC4)c3=O)[C@@H]2N1CC1CC1` across the screens: -44 | 20 | -9

Later entries
Values run as follows: rRNA inh HTS OD600	rRNA inh HTS RFP	rRNA inh HTS
> C[C@H](CO)N1C[C@H](C)[C@@H](CN(C)Cc2ccncc2)Oc2c(NC(=O)c3nc4ccccc4s3)cccc2C1=O
    -38	-3.4	-26
> COc1ccccc1-c1ccc2c(c1)[C@@H]1[C@@H](CCN1S(=O)(=O)c1ccccc1OC)[C@H](CO)N2
    5	4.4	6
> CCOc1cc(/C=C/C(=O)OCC(=O)N(CC)C2CCS(=O)(=O)C2)cc(Cl)c1OC (stereo unspecified)
    0	0.2	5
> C[C@@H]1CCCCO[C@@H](CN(C)Cc2ccccc2)[C@@H](C)CN([C@H](C)CO)C(=O)c2cc(NC(=O)c3ccccc3)ccc2O1
    -1	-0.6	3
> COCC(=O)NC[C@H]1N[C@H](CO)[C@H]1c1ccc(C2=CCCCC2)cc1
    -5	5.0	-1
> O=C(C[C@H]1C[C@@H]2c3cc(NC(=O)c4ccc5c(c4)OCO5)ccc3O[C@@H]2[C@H](CO)O1)NCCc1ccccc1
    -6	-1.6	-6
> Cc1ccc(S(=O)(=O)N(C)C[C@H]2Oc3c(NS(C)(=O)=O)cccc3C(=O)N([C@@H](C)CO)C[C@H]2C)cc1
    -6	-4.4	-4
> CCOC(=O)C1=C(C(=O)OCC)C2N(Cc3ccc(C#N)cc3)c3ccccc3[C@@]23C[C@@H](C(=O)OC)N(S(=O)(=O)c2ccccc2)C3=N1 (stereo partly specified)
    15	0.5	13
> C[C@H](CO)N1C[C@H](C)[C@H](CN(C)Cc2ccncc2)Oc2c(NC(=O)c3ccncc3)cccc2C1=O
    0	-2.0	-1
> CC(=O)OC[C@@H]1CN(Cc2ccccc2)C[C@H](n2cnc3c(N(C)C(C)C)ncnc32)O1
    -10	2.5	6
> CN(C)c1nn2c(-c3ccccc3)nnc2o1
    -5	1.6	-4
> COc1ccc(S(=O)(=O)Nc2cccc3c2O[C@H](CN(C)S(C)(=O)=O)[C@H](C)CN([C@H](C)CO)C3=O)cc1
    6	-1.2	3
> C[C@H](CO)N1C[C@H](C)[C@H](CN(C)Cc2cccnc2)Oc2ncc(-c3cccc(C#N)c3)cc2C1=O
    3	-2.8	-1
> Cc1ccc2c(=O)n3c(nc2c1)C(Cc1ccc(O)cc1)NC(=O)c1cc2ccccc2cc1-3 (stereo unspecified)
    1	-3.3	-7
> COc1ccc(S(=O)(=O)Nc2ccc3c(c2)C(=O)N([C@@H](C)CO)C[C@@H](C)[C@@H](CN(C)Cc2ccncc2)OCCCC[C@H](C)O3)cc1
    -19	-4.0	-2

Not all compounds are listed; count on the stated rates, not on these rows.
